# ugtP null kill: growth inhibition of ugtP-null S. aureus, primary screen, RN4220 ugtP deletion, OD600; growth inhibition, % (no concentration beside the values); 330,000 tested, 0.54% active; 16 h; some inactives read as strong as hits;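 active means z-score under -3 and OD600 up to 0.15 on both plates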;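 further: plate controls were untreated wells for no effect and antibiotic for full effect; wells of about 80 µL received 100 nL stock; the first replicate is given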
# Bead autofluor: flagged as autofluorescent in microsphere protease counterscreen. compound autofluorescence counterscreen, microsphere flow cytometry; active compounds read high. fluorescence intensity (test concentration not listed). 360,000 tested, 3.1% active;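 active means at least 3 SD above the mean of all compounds, about 16000 in these data; inconclusive means too few beads counted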;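 further: 100 nL of 1 mM stock went into each well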
# Sa RN4220 lethal: growth inhibition of S. aureus RN4220, primary screen, OD600 | 16 h | inhibition, % (no concentration beside the values) | 330,000 tested, 0.33% active | AID 1259311, 2017;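 active means z-score of -3 or lower and OD600 up to 0.18 on both plates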;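 further: plate controls were untreated cells for no effect and reference antibiotic for full effect; stock transfer was 100 nL into about 80 µL; one replicate is shown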
# BJeLR lethal: MLPCN primary cell-based screen for lethality selective to Ras in HRASV12 cells; 300,000 tested, 0.17% active; BJeLR (HRASV12) viability, CellTiter-Glo ATP luminescence, 48 h; reference of the scale not given here; inhibition, % (no concentration beside the values);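 active means replicate mean above 50%; inconclusive means above 50% but judged a plate artefact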;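 further: 50 nL library stock added to about 25 µL; numbers are from one replicate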
# PrP 5UTR inh: inhibition of PrP 5' UTR reporter expression | cell-based PrP 5' UTR mRNA reporter, plate reader | inhibition, % (test concentration not listed) | 340,000 tested, 0.35% active | AID 488862, 2010;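 active means every replicate at 50% or more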;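 further: 0 = median of the neutral control wells; tested in H4 reporter cells; numbers are from one replicate; inactives centre near -14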
# Mtb hypoxia inh: PubChem AID 1159583; fluorescence inhibition, % (concentration not given with the values); 300,000 tested, 0.1% active; M. tuberculosis hypoxia-regulated fluorescent reporter, fluorescence;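 active means 35 to 45% if threefold the growth effect, above 45% if 1.5-fold the growth effect; inactive means the rest, general growth blockers included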;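 further: wells of about 50 µL received 100 nL stock; 0% = vehicle wells and 100% = reference inhibitor wells; whole bacteria with a GFP reporter of the hypoxia response; strong numbers were not always called active; many hits fall short of the cut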
# Mtb hypoxia inh growth: further read-out of Mtb hypoxia inh, marked with its call; growth inhibition, %; measured here: M. tuberculosis growth (absorbance);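 0% = vehicle and 100% = reference antibiotic; read after six days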
# Active calls of the source: *; ? = inconclusive; . = not tested or not shown.
SMILES,ugtP null kill,Bead autofluor,Sa RN4220 lethal,BJeLR lethal,PrP 5UTR inh,Mtb hypoxia inh,Mtb hypoxia inh growth
COc1ccc(-c2nnc(SC(C)C#N)o2)cc1 (stereo not drawn),-3,4062,8.9,-1,-22,12,16
O=P(OC1CCCCC1)(OC1CCCCC1)C(O)c1ccccc1 (stereo not drawn),-5,5357,6.5,-4,-17,1,14
O=C(c1ccc(-n2cncn2)c([N+](=O)[O-])c1)N1CCN(S(=O)(=O)c2ccc(Cl)cc2)CC1,-2,?,-4.0,-25,-11,1,17
O=C(NN=Cc1ccc(N2CCCCC2)o1)c1ccccc1,-1,.,2.4,.,.,0,6
Nc1nc(SCC(=O)c2cc(F)ccc2F)n[nH]1,11,4560,1.3,8,-26,14,9
Clc1cc(Sc2ccc(Br)cc2)nnc1-c1ccccc1,-4,5084,25,6,-23,.,.
Cc1ccc(CNC(=O)CN(C(=O)N2CCN(C)CC2)S(=O)(=O)c2ccc(C)cc2)cc1,2,.,1.3,6,-12,6,1
O=C(CSc1ccccc1C(=O)NCc1ccccc1)NC12CC3CC(CC(C3)C1)C2,8,3304,-0.2,11,-22,17,7
CCCC(=O)OC(C(=O)Nc1cc(C(F)(F)F)ccc1Cl)c1ccccc1 (stereo not drawn),-10,2024,-3.5,-1,-24,4,1
CC(=O)C1=C(O)C(=O)N(Cc2cccnc2)C1c1ccc(C)cc1 (stereo not drawn),3,.,6.5,1,.,-16,2
CCOC(=O)c1sc2nc(C3CC3)cc(-c3ccc(OC)cc3)c2c1N,-1,2739,-0.8,16,5,2,9
CCOC(=O)c1ccc(NC(=O)CC2C(=O)N(c3ccc(F)cc3)C(=O)N2CCC(C)C)cc1 (stereo not drawn),-1,11400,0.8,-6,-2,0,9
O=C(CN1C(=O)NC2(CCOc3ccccc32)C1=O)NCc1ccc(F)cc1 (stereo not drawn),-5,2830,-2.0,.,5,-4,-7
COc1ccc(S(=O)(=O)N2CCC(C)CC2)cc1N(C)S(=O)(=O)c1ccccc1,0,6507,2.8,-4,-6,4,7

# Ordered by SMILES length (falling): 10 of the compounds above.
SMILES,ugtP null kill,Bead autofluor,Sa RN4220 lethal,BJeLR lethal,PrP 5UTR inh,Mtb hypoxia inh,Mtb hypoxia inh growth
O=C(c1ccc(-n2cncn2)c([N+](=O)[O-])c1)N1CCN(S(=O)(=O)c2ccc(Cl)cc2)CC1,-2,?,-4.0,-25,-11,1,17
CCOC(=O)c1ccc(NC(=O)CC2C(=O)N(c3ccc(F)cc3)C(=O)N2CCC(C)C)cc1 (stereo not drawn),-1,11400,0.8,-6,-2,0,9
Cc1ccc(CNC(=O)CN(C(=O)N2CCN(C)CC2)S(=O)(=O)c2ccc(C)cc2)cc1,2,.,1.3,6,-12,6,1
COc1ccc(S(=O)(=O)N2CCC(C)CC2)cc1N(C)S(=O)(=O)c1ccccc1,0,6507,2.8,-4,-6,4,7
O=C(CN1C(=O)NC2(CCOc3ccccc32)C1=O)NCc1ccc(F)cc1 (stereo not drawn),-5,2830,-2.0,.,5,-4,-7
CCCC(=O)OC(C(=O)Nc1cc(C(F)(F)F)ccc1Cl)c1ccccc1 (stereo not drawn),-10,2024,-3.5,-1,-24,4,1
CCOC(=O)c1sc2nc(C3CC3)cc(-c3ccc(OC)cc3)c2c1N,-1,2739,-0.8,16,5,2,9
O=P(OC1CCCCC1)(OC1CCCCC1)C(O)c1ccccc1 (stereo not drawn),-5,5357,6.5,-4,-17,1,14
O=C(NN=Cc1ccc(N2CCCCC2)o1)c1ccccc1,-1,.,2.4,.,.,0,6
Nc1nc(SCC(=O)c2cc(F)ccc2F)n[nH]1,11,4560,1.3,8,-26,14,9

# From PubChem BioAssay
